Vaccinia inh: Vaccinia orthopox stage-specific inhibition | 0.01% of 89,000 active | activity change (mCherry), % (test concentration not listed) | AID 1053133 | Vaccinia-infected cells, mCherry/Venus stage reporter fluorescence; active compounds read low; some inactives read as strong as hits;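 active means mCherry past -33% and 40 or more points under the early reporter, replicates agreeing; inconclusive means past -33% without that gap or agreement; tested in A549 cells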;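 further: scaled between vehicle wells and reference inhibitor wells; 23 nL library stock went into each well; one replicate is shown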
Vaccinia inh Venus: further read-out of Vaccinia inh, marked with its call; activity change (Venus), %; measured here: Venus reporter, other viral stage;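 negative = less Venus signal; first of two replicates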
* hit, by the source's call; ? = inconclusive; / = not tested or not shown; & = joins results of further samples. A portion of the library; the hit share may differ from the screen's.

Below each SMILES: Vaccinia inh	Vaccinia inh Venus
> Cc1ccc(S(=O)(=O)N(C)C[C@H]2Oc3c(NC(=O)Nc4c(C)noc4C)cccc3C(=O)N([C@H](C)CO)C[C@H]2C)cc1
 : 8	-4
> CCCNC(=O)N1CC[C@@H]2[C@H]1c1cc(-c3ccc(F)cc3)ccc1N(C)[C@H]2CO
 : -20	-30
> C/C=C/c1ccc2c(c1)O[C@H](CN(C)CC1CCOCC1)[C@@H](C)CN([C@H](C)CO)S2(=O)=O
 : -11&-19	-16&-18
> CCNC(=O)C[C@H]1CC[C@@H]2[C@H](COC[C@@H](O)CN2Cc2ccccc2F)O1
 : 12	0
> O=C(CC(F)(F)F)N1C[C@H]2[C@@H](c3ccccc31)[C@@H](CO)N2CC1CCOCC1
 : -5	-1
> C[C@H]1CN([C@@H](C)CO)C(=O)c2cc(NC(=O)Nc3ccccc3)ccc2O[C@@H]1CN(C)CC1CCCCC1
 : 2	-4
> COCC(=O)N(C)C[C@@H]1Oc2cc(C#C[C@@H](C)O)ccc2S(=O)(=O)N([C@@H](C)CO)C[C@@H]1C
 : 4	2
> CN(C)CCCNC(=O)[C@H]1[C@H](CO)[C@H]2Cn3c(ccc(-c4ccncc4)c3=O)[C@@H]1N2C(=O)CC1CC1
 : 5	9
> CO[C@@H]1CN(C)C(=O)c2ccc(NC(=O)CC(F)(F)F)cc2OC[C@@H](C)N(CC2CC2)C[C@@H]1C
 : 10	1
> O=C(C[C@@H]1CC[C@@H]2[C@H](COC[C@H](O)CN2CCC(F)(F)F)O1)NCc1ccc2c(c1)OCO2
 : 8	8
> C[C@H](CO)N1C[C@H](C)[C@@H](CN(C)C(=O)Nc2ccccc2F)Oc2cc(Br)ccc2S1(=O)=O
 : -7	7
> CN(C)C(=O)c1cccc(-c2ccc(C3[C@@H]4CN(C(=O)c5ccccn5)C[C@H]3N4)cc2)c1 (some centres undefined)
 : -7&0	-13&-3
> CN(C)C(=O)[C@H]1[C@H](CO)[C@H]2Cn3c(cccc3=O)[C@@H]1N2C(=O)c1ccc(F)cc1
 : -2	5
> CNC(=O)C[C@H]1CC[C@H]2[C@H](COc3ccc(NS(=O)(=O)c4ccccc4C)cc3C(=O)N2C)O1
 : 15	11
> CCC(=O)Nc1ccc2c(c1)OC[C@@H](C)N(CC1CC1)C[C@H](C)[C@@H](OC)CN(C)C2=O
 : -1	4
> C[C@@H]1CCCCO[C@H](CN(C)C(=O)C2CCCCC2)[C@@H](C)CN([C@@H](C)CO)C(=O)c2cc(NC(=O)CCC(F)(F)F)ccc2O1
 : -11	-10
> CCS(=O)(=O)N1CCC2(CC1)CN(C(=O)Nc1c(C)noc1C)[C@H](CO)c1c2c2ccc(OC)cc2n1C
 : 3	-3
> COc1ccc(-c2ccc([C@@H]3[C@H](CO)N4C(=O)CN(C(=O)c5ccccc5)C[C@@H]34)cc2)cc1
 : -27	-19
> C/C=C/c1ccc2c(c1)O[C@H](CN(C)C(=O)Nc1cccc(F)c1)[C@@H](C)CN([C@H](C)CO)S2(=O)=O
 : -29	-19
> CN1C(=O)c2cc(NC(=O)NCc3ccccc3)ccc2OC[C@@H]2O[C@@H](CC(=O)NCC3CCCCC3)CC[C@@H]21
 : -3	-3
> C[C@@H]1CN([C@H](C)CO)C(=O)c2ccccc2-c2ccccc2CO[C@@H]1CN(C)C(=O)[C@H]1CCCN1C
 : 1	-1
> C[C@H](CO)N1C[C@H](C)[C@@H](CN(C)Cc2ccc(Oc3ccccc3)cc2)Oc2ccc(NC(=O)C3CC3)cc2C1=O
 : ?	/
> C[C@H]1CN([C@@H](C)CO)C(=O)Cc2cc(NS(C)(=O)=O)ccc2O[C@H]1CN(C)CC1CC1
 : -2	1
> CC(C)NC(=O)N(C)C[C@@H]1OCCCC[C@@H](C)Oc2ccc(NC(=O)Nc3ccc4c(c3)OCO4)cc2C(=O)N([C@H](C)CO)C[C@@H]1C
 : 9	-5
> C[C@@H]1CCCCO[C@H](CN(C)S(=O)(=O)c2ccc(Cl)cc2)[C@H](C)CN([C@@H](C)CO)C(=O)c2cc(NS(C)(=O)=O)ccc2O1
 : -17	-9
> COc1ccc(NC(=O)Nc2ccc3c(c2)C(=O)N([C@@H](C)CO)C[C@@H](C)[C@H](CN(C)S(=O)(=O)c2ccc(Cl)cc2)O3)cc1
 : 1	-3
> CNC(=O)C[C@@H]1CC[C@H]2[C@@H](COc3ccc(NC(=O)c4cc(F)cc(F)c4)cc3C(=O)N2C)O1
 : -2	2
> C[C@H]1CN([C@@H](C)CO)C(=O)Cc2cc(NS(C)(=O)=O)ccc2O[C@H]1CN(C)C(=O)Nc1cccc2ccccc12
 : 40	29
> COc1cccc(NC(=O)N[C@H]2CC[C@@H](CC(=O)N3CCOCC3)O[C@@H]2CO)c1
 : 26	9
> CCC(=O)Nc1ccc2c(c1)C(=O)N(C)C[C@@H](OC)[C@@H](C)CN(C(=O)c1ccncc1)[C@@H](C)CO2
 : 20	14
> C[C@@H]1CN([C@H](C)CO)C(=O)CCCn2nncc2CO[C@@H]1CN(C)C(=O)Nc1ccc2c(c1)OCCO2
 : 19	9
> CN(C)CCCNC(=O)C[C@@H]1CC[C@@H]2[C@H](COC[C@@H](O)CN2S(=O)(=O)c2ccc(F)cc2)O1
 : 7	7
> C[C@H]1CN([C@@H](C)CO)C(=O)c2cccc(NS(=O)(=O)c3ccccc3)c2O[C@H]1CN(C)C(=O)Nc1ccc(C(F)(F)F)cc1
 : 1	2
> Cc1noc(C)c1S(=O)(=O)Nc1ccc2c(c1)C(=O)N([C@H](C)CO)C[C@@H](C)[C@@H](CN(C)Cc1ccc(C(=O)O)cc1)OCCCC[C@@H](C)O2
 : 15	-2
> O=C(C[C@H]1CC[C@H]2[C@@H](COC[C@H](O)CN2C(=O)Nc2ccccc2)O1)NC1Cc2ccccc2C1
 : -31	-24
> CC(=O)N1[C@H](C(=O)NC2CCC2)[C@@H](CO)[C@@H]2Cn3c(ccc(C4=CCCC4)c3=O)[C@@H]21
 : 6	2
> O=C(CN1CCOCC1)N[C@@H]1CC[C@@H](CCn2cc(C3CCCC3)nn2)O[C@@H]1CO
 : 25	15
> CO[C@H](CN(C)Cc1cc(F)ccc1F)[C@H](C)CN([C@H](C)CO)S(=O)(=O)c1ccc(Cl)cc1
 : -9	-6
> CO[C@H]1CN(C)C(=O)c2cccc(C#N)c2OCC[C@H]2CC[C@@H](OC)[C@H](CN(C)C(=O)[C@H]1C)O2
 : 10	3
> COCC(=O)N1C[C@H](C)[C@@H](OC)CN(C)C(=O)c2ccc(NC(=O)c3ccc(F)cc3)cc2OC[C@@H]1C
 : 12	12
> CO[C@H]1CN(C)C(=O)c2cc(NC(=O)c3cc(C)on3)ccc2OC[C@H](C)N(C)C[C@H]1C
 : -1	-1
> Cc1ccc(S(=O)(=O)Nc2ccc3c(c2)CC(=O)N([C@@H](C)CO)C[C@H](C)[C@H](CN(C)Cc2ccncc2)O3)cc1
 : 26	18
> N#C[C@@H]1[C@H](c2ccccc2C2=CCCC2)[C@@H](CO)N1C(=O)Cc1ccncc1
 : 1	0
> COc1ccc(NC(=O)Nc2ccc3c(c2)C(=O)N([C@H](C)CO)C[C@@H](C)[C@H](CN(C)C(=O)NC2CCCCC2)OCCCC[C@H](C)O3)cc1
 : -17	-12
> CCCNC(=O)N1[C@@H](C#N)[C@@H](c2ccc(-c3cccnc3)cc2)[C@@H]1CO
 : 3	3
> CN1C(=O)c2cc(NS(=O)(=O)c3ccc(F)cc3)ccc2OC[C@@H]2O[C@@H](CC(=O)O)CC[C@@H]21
 : 4	9
> COc1ccccc1NC(=O)N[C@@H]1CC[C@@H](CCNS(=O)(=O)c2ccccc2)O[C@H]1CO
 : -11	-13
> O=C(O)C[C@@H]1C[C@H]2c3cc(NC(=O)C4CCC4)ccc3O[C@H]2[C@@H](CO)O1
 : 44	33
> C[C@@H]1CN([C@H](C)CO)S(=O)(=O)c2ccc(Br)cc2O[C@@H]1CN(C)Cc1cccnc1
 : -3	-1
> CC(C)NC(=O)Nc1ccc2c(c1)C(=O)N([C@H](C)CO)C[C@H](C)[C@H](CN(C)S(=O)(=O)c1ccc(F)cc1)OCCCC[C@H](C)O2
 : 2	4
> C[C@H](CO)N1C[C@H](C)[C@H](CN(C)C(=O)CCCN(C)C)OCCCC[C@H](C)Oc2ccc(NC(=O)Cc3ccccc3)cc2C1=O
 : 18	6
> CNC(=O)C[C@H]1CC[C@H]2[C@@H](COC[C@H](O)CN2Cc2ccc(C(F)(F)F)cc2)O1
 : -2	-1
> COC(=O)C[C@H]1C[C@H]2c3cc(NS(=O)(=O)c4ccc(OC)cc4)ccc3O[C@H]2[C@H](CO)O1
 : -6	-9
> COc1ccc(C#Cc2cnc3c(c2)C(=O)N([C@@H](C)CO)C[C@@H](C)[C@@H](CN(C)C)O3)cc1
 : -26	-27
> CN1CCN(C(=O)[C@@H]2[C@@H](CO)[C@@H]3Cn4c(cccc4=O)[C@H]2N3Cc2ccncc2)CC1
 : -2	6
> CCCC[C@@H](O)C1=C(C)Cn2c(=O)n(-c3ccccc3)c(=O)n2[C@H]1CO
 : 1	-2
> COCC(=O)N(C)C[C@@H]1Oc2cc(-c3ccncc3)ccc2S(=O)(=O)N([C@H](C)CO)C[C@@H]1C
 : 18	12
> C[C@@H]1CN([C@H](C)CO)C(=O)c2cccc(NC(=O)Nc3ccc(F)cc3)c2O[C@H]1CN(C)S(=O)(=O)c1ccc(F)cc1
 : 9	9
> C[C@@H]1CN([C@@H](C)CO)C(=O)c2cc(NS(=O)(=O)c3cn(C)cn3)ccc2O[C@H]1CN(C)Cc1ccc(Cl)c(Cl)c1
 : 12	4
> COc1ccc(S(=O)(=O)N2C[C@H](O)COC[C@H]3O[C@H](CC(=O)N(C)C)CC[C@@H]32)cc1
 : 30	17

(list continues)
Below each SMILES: Vaccinia inh	Vaccinia inh Venus
> C[C@H](CO)N1C[C@H](C)[C@@H](CN(C)C(=O)Nc2cccc3ccccc23)Oc2c(NC(=O)C3CCCCC3)cccc2C1=O
 : 20	13
> C[C@H]1CCCCO[C@@H](CN(C)CC2CC2)[C@@H](C)CN([C@@H](C)CO)C(=O)c2cc(NS(=O)(=O)c3ccccc3)ccc2O1
 : -10&-2	-9&-4
> COCC(=O)Nc1ccc2c(c1)OC[C@@H](C)N(Cc1ccncc1)C[C@H](C)[C@@H](OC)CN(C)C2=O
 : -6	-10
> C[C@@H]1CN([C@H](C)CO)C(=O)c2cc(NS(=O)(=O)c3ccc(Cl)cc3)ccc2O[C@@H](C)CCCCO[C@@H]1CN(C)C(=O)C1CCCCC1
 : ?	/
> Cc1ccccc1S(=O)(=O)NCC[C@@H]1CC[C@@H](NC(=O)C2CCC2)[C@H](CO)O1
 : -3	0
> CCN(C[C@@H]1[C@@H](c2ccccc2)[C@H](CO)N1C(C)=O)C(=O)NC1CCCC1
 : 21	15
> C[C@@H]1CCCCO[C@@H](CN(C)S(=O)(=O)c2ccc(Cl)cc2)[C@@H](C)CN([C@H](C)CO)C(=O)c2cc(N(C)C)ccc2O1
 : 10&0	-2&4
> CN1C(=O)c2cc(NC(=O)c3cccc(C(F)(F)F)c3)ccc2OC[C@H]2O[C@@H](CC(=O)O)CC[C@H]21
 : 6	13
> O=C(C[C@H]1CC[C@H](NC(=O)Nc2cc(F)ccc2F)[C@@H](CO)O1)Nc1ccccc1
 : -14	-14
> O=C(O)C[C@H]1C[C@@H]2c3cc(NC(=O)CC4CC4)ccc3O[C@@H]2[C@@H](CO)O1
 : 7	3
> O=C(C1CCCC1)N1CC(=O)N2[C@H](CO)[C@@H](c3ccc(C#CC4CCCC4)cc3)[C@H]2C1
 : -35	-32
> C[C@@H]1CN([C@@H](C)CO)C(=O)c2cccc(NS(=O)(=O)c3ccc(F)cc3)c2O[C@@H]1CN(C)C(=O)Nc1cccc2ccccc12
 : 0	6
> C[C@@H]1CN([C@@H](C)CO)C(=O)c2cc(NS(=O)(=O)c3ccccc3)ccc2O[C@@H]1CN(C)Cc1ccc(C(F)(F)F)cc1
 : -21	-16
> O=C(NCCCN1CCOCC1)[C@H]1N[C@H]2c3ccc(C4=CCCCC4)c(=O)n3C[C@H]2[C@@H]1CO
 : 6	-3
> CNC(=O)C[C@H]1CC[C@H]2[C@@H](COC[C@H](O)CN2S(=O)(=O)c2ccc(Oc3ccccc3)cc2)O1
 : 3	-1
> C[C@@H]1CN([C@H](C)CO)C(=O)c2cc(NS(=O)(=O)c3ccccc3)ccc2O[C@@H]1CN(C)C(=O)Nc1ccc2c(c1)OCO2
 : 11	-1

Of the compounds above, nine have an aryl methoxy group:
Below each SMILES: Vaccinia inh	Vaccinia inh Venus
> CCS(=O)(=O)N1CCC2(CC1)CN(C(=O)Nc1c(C)noc1C)[C@H](CO)c1c2c2ccc(OC)cc2n1C
 : 3	-3
> COc1ccc(-c2ccc([C@@H]3[C@H](CO)N4C(=O)CN(C(=O)c5ccccc5)C[C@@H]34)cc2)cc1
 : -27	-19
> COc1ccc(NC(=O)Nc2ccc3c(c2)C(=O)N([C@@H](C)CO)C[C@@H](C)[C@H](CN(C)S(=O)(=O)c2ccc(Cl)cc2)O3)cc1
 : 1	-3
> COc1cccc(NC(=O)N[C@H]2CC[C@@H](CC(=O)N3CCOCC3)O[C@@H]2CO)c1
 : 26	9
> COc1ccc(NC(=O)Nc2ccc3c(c2)C(=O)N([C@H](C)CO)C[C@@H](C)[C@H](CN(C)C(=O)NC2CCCCC2)OCCCC[C@H](C)O3)cc1
 : -17	-12
> COc1ccccc1NC(=O)N[C@@H]1CC[C@@H](CCNS(=O)(=O)c2ccccc2)O[C@H]1CO
 : -11	-13
> COC(=O)C[C@H]1C[C@H]2c3cc(NS(=O)(=O)c4ccc(OC)cc4)ccc3O[C@H]2[C@H](CO)O1
 : -6	-9
> COc1ccc(C#Cc2cnc3c(c2)C(=O)N([C@@H](C)CO)C[C@@H](C)[C@@H](CN(C)C)O3)cc1
 : -26	-27
> COc1ccc(S(=O)(=O)N2C[C@H](O)COC[C@H]3O[C@H](CC(=O)N(C)C)CC[C@@H]32)cc1
 : 30	17
